Screening data: PubChem BioAssay, National Center for Advancing Translational Sciences (NCATS)
EPAC2 ant val: validation of human EPAC2 antagonists; Q8WZA2; EPAC2 Rap1B BODIPY-GDP exchange, fluorescence; Potency, µM (top dose mostly 112 µM), without a hit: at the highest dose activity, negative = inhibition, hits mostly inhibitors; actives 1.7% (n = 16,000); active means well fitted inhibition curve with a large enough effect; inconclusive means small, poorly fitted or top-dose-only effect; inactive means no such curve, though single readings can be large or run the other way;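 further: 100% = activation by cAMP agonist control; nearly all actives have a fitted effect of over 40% in size; the record reuses the description of the EPAC1 agonist screen; inactives centre near -10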
Target sequence (Q8WZA2 whole entry, looked up): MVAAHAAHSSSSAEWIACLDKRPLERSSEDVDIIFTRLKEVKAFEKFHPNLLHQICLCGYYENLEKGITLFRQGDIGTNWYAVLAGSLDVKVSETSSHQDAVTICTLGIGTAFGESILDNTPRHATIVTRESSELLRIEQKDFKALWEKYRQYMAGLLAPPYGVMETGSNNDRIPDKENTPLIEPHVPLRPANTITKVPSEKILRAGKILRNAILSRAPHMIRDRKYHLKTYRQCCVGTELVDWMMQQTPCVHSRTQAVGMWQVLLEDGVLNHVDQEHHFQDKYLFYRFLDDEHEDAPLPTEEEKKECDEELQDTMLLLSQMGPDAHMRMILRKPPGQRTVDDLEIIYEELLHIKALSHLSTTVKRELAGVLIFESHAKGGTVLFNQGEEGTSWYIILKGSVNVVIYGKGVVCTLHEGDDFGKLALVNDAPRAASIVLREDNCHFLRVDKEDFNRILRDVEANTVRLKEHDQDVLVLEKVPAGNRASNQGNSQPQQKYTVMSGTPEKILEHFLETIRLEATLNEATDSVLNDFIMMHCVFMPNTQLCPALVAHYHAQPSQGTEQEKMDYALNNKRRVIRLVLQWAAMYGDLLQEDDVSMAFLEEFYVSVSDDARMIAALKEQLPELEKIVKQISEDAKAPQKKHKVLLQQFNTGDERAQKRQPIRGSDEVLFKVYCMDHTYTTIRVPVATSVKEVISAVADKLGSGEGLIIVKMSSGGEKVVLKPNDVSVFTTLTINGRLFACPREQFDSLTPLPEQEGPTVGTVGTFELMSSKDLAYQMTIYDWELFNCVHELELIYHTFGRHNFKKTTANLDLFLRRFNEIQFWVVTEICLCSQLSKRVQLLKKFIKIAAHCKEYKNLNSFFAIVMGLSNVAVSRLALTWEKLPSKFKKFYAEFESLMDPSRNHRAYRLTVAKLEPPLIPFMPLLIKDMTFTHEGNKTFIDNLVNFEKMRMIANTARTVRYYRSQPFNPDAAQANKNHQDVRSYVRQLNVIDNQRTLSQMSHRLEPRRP
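Fluorescent exchange read-out: 100 nM EPAC2 with 250 nM RAP1B–BODIPY-GDP and 50 uM GDP; BODIPY-GDP release lowers fluorescence. Read at 480/540 nm every 5 min for 30 min at room temperature; normalized to 6.5 mM cAMP.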
An asterisk follows results filed as active; ? = inconclusive; & = joins results of further samples; ! = not confirmed by another sample; [ ] = another dose, or the depositor's remark. Potency means the concentration at half of the fitted maximal effect. Not all compounds are listed; the hit share may differ from the screen's.

SMILES	EPAC2 ant val
CC(=O)CC(c1ccc([N+](=O)[O-])cc1)c1c(O)c2ccccc2oc1=O (stereo unspecified)	-5%[56.6 µM]
FC(F)(F)c1cnc(-c2cc3c(c(OCC4CCCO4)c2)OCCN(Cc2cccn2-c2nccs2)C3)c(Cl)c1 (stereo unspecified)	-3%
C=CCCCCCCCCCCCc1ccco1	?
Cc1nc2cnc(N3CCN(C)CC3)nc2n(C[C@H]2CCCO2)c1=O	-8%
NC(C(=O)O)C(O)C(=O)O (stereo unspecified)	1%
O=C(c1ccncc1)N1CCC2(CCCN(Cc3nccs3)C2)CC1	-21%
Nc1ccc(/C=C/c2ccnc3ccccc23)c(N)c1	-20%
FC(F)(F)c1ccccc1-c1cncnc1NCc1cccs1	-23%
COc1cc(=O)n2c(c1C(=O)NCc1ccc3c(c1)OCO3)CCN(C(=O)c1ccc(C)cc1)CC2	-12%
O=C1C2C=CC=CC2=NC(=S)N1CCN1CCC(=C(c2ccc(F)cc2)c2ccc(F)cc2)CC1 (stereo unspecified)	?
CC[C@](N)(CCC(=O)O)C(=O)O	-8%&-14%
C/C=C(\C)C(=O)O[C@H]1CC(C)=C2C(=O)C=C(C)C2[C@@H]2OC(=O)[C@@](C)(OC(=O)C=C(C)C)C21 (stereo partly specified)	-15%
CNC(=O)[C@H]1O[C@@H](n2cnc3c(NCc4cccc(I)c4)ncnc32)[C@H](O)[C@@H]1O	-13%&-17%&-15%
CS(=O)(=O)Nc1cccc(-c2cncnc2Nc2ccccc2)c1	-8%
O=C(OOC(=O)c1ccccc1)c1ccccc1	-17%
CCOC(=O)[C@H](CCc1ccccc1)N[C@@H](C)C(=O)N1Cc2cc(OC)c(OC)cc2C[C@H]1C(=O)O	15%
O=C(O)CCC/C=C\C[C@@H]1[C@@H](/C=C/[C@@H](O)COc2cccc(Cl)c2)[C@H](O)C[C@@H]1O	-12%[11.4 µM]
Cc1ccccc1C1(CC(=O)N2CC3(C)CC2CC(C)(C)C3)CC(=O)N(Cc2cccnc2)C1=O (stereo unspecified)	-29%
N#Cc1cc2[nH]c(=O)c(=O)[nH]c2cc1[N+](=O)[O-]	?
O=C(c1cc(C(F)(F)F)cc(C(F)(F)F)c1)N1CCC2(CC1)CCN(c1ccccc1)CC2	-24%
CN(C)c1ccc(/C=C/c2cc(Cl)nc3ccccc23)cc1	-9%
N=C(N)c1ccc(OCCCOc2ccc(C(=N)N)cc2)cc1	11%
CCCC(=O)Nc1ncnc2c1ncn2[C@@H]1O[C@@H]2COP(=O)(O)O[C@H]2[C@H]1OC(=O)CCC	?
CC(C)CN1CC[C@@]2(CCCN(C(=O)c3csnn3)C2)C1	-18%
CCCCCCCCCCCCCCCCCCN(CCCCCCCCCCCCCCCCCC)c1ccc(/C=C/c2ccnc3ccccc23)cc1	-27%
COc1cccc(O)c1O	9%
CO[C@@]1(NC(=O)C2SC(=C(C(N)=O)C(=O)O)S2)C(=O)N2C(C(=O)O)=C(CSc3nnnn3C)CS[C@@H]21 (stereo partly specified)	2%[56.6 µM]
O=P(O)(O)OC(Cn1cncn1)(Cn1cncn1)c1ccc(F)cc1F	4%
NNc1nnc(Cc2ccncc2)c2ccccc12	12%
Cc1[nH]c(C)c(Cl)c(=O)c1Cl	?
COCCn1c(=O)c(CCc2ccccc2)nc2cnc(N(C)C)nc21	-6%
COc1cc(/C=C(\C#N)C(=O)c2ccc(O)c(O)c2)cc(I)c1O	-28%
CC1(C)N=C(N)N=C(N)N1c1ccc(Cl)cc1	8%
Cc1noc(C)c1C(=O)N1CCC2(CCCN(Cc3nccs3)C2)CC1	?
Cc1ncc2c(c1CNC(=O)c1ccc3c(c1)OCO3)CCN(C(=O)C1Cc3ccccc3O1)C2 (stereo unspecified)	-12%
CC(C)C[C@H](NC(=O)[C@H](Cc1ccccc1)NC(=O)c1cnccn1)B(O)O	2%&8%
COCCNC(=O)COc1ccc(OCCNC[C@@H](O)COc2ccccc2)cc1	-15%
CCCCCCCCCCCCCCC[C@@H](O)[C@H](CO)NC(=O)CCCCCCC	-2%[11.4 µM]
CCN(CC)c1ccc(N=Nc2ccc(S(=O)(=O)N(C)C)cc2)c(S(=O)(=O)NCC[n+]2ccccc2)c1	6%
COc1ccc(CN2C[C@H](Sc3nc4ccccc4[nH]3)C[C@H]2C(=O)N(C)C)c2ccccc12	?
O=C(c1ccncc1)N1CCC2(CC1)CN(c1ncccn1)C2	-26%
CS(=O)(=O)Nc1cccc(-c2ccc3ncnc(NC4CC4)c3c2)c1	-10%
CN(C)c1ccc(-c2nccc(NCc3cccs3)n2)cc1	-29%
CC(=O)/C=C1\C(=O)N(C)c2ccccc21	6%
O=C(Nc1ccccc1)N1CC[C@@]2(CCCN(C(=O)c3cc(C(F)(F)F)cc(C(F)(F)F)c3)C2)C1	?
COc1cc(-c2noc(C)c2-c2ccc3[nH]ccc3c2)cc(OC)c1OC	79µM*
COc1cccc(Nc2ncc3nc(C)c(=O)n(C4CC4)c3n2)c1	-7%
CCN(CC)CCOc1ccc(-c2nc3cc(Cl)ccc3s2)cc1	-7%
CC(C)C[C@@H](CO)N1CCN(Cc2ccc([N+](=O)[O-])cc2)CCC1=O	-24%
Cc1nc(N=Nc2ccc(S(=O)(=O)O)cc2S(=O)(=O)O)c(COP(=O)(O)O)c(C=O)c1O	-9%&-20%&14%
Cc1cc(C(=O)NNCc2ccccc2)no1	?
CC[C@@H]1/C=C(\C)C[C@H](C)C[C@H](OC)[C@H]2O[C@@](O)(C(=O)C(=O)N3CCCC[C@H]3C(=O)O[C@H](/C(C)=C/[C@@H]3CC[C@@H](Cl)[C@H](OC)C3)[C@H](C)[C@@H](O)CC1=O)[C@H](C)C[C@@H]2OC	11%
COc1ccc2[nH]cc(CCNc3ncncc3-c3ccccc3C(F)(F)F)c2c1	?
CC(=O)NCCNc1nc(-c2cccnc2)nc2ccccc12	-5%
COc1ccccc1CNc1ncnc2sc(C(=O)N3CCN(C)CC3)c(C)c12	-5%
COc1cc2c3cc1Oc1c(OC)c(OC)cc4c1[C@@H](Cc1ccc(O)c(c1)Oc1ccc(cc1)C[C@@H]3N(C)CC2)N(C)CC4	-11%
COC(=O)[C@@H](Cc1ccccc1)N(Cc1ccccc1)S(=O)(=O)N(Cc1ccccc1)[C@H](Cc1ccccc1)C(=O)OC	4%
Cc1ccnc2c(Cl)c(Cl)ccc12	-12%
COC(=O)N1CCC2(CCN(Cc3cc(C(F)(F)F)cc(C(F)(F)F)c3)CC2)CC1	?
COc1cc(OC)c(OC)cc1CN1CCOc2ccc(CN3C[C@@H](C)O[C@@H](C)C3)cc2C1	14%

Two of the compounds above, with each value named:
COCCNC(=O)COc1ccc(OCCNC[C@@H](O)COc2ccccc2)cc1
  EPAC2 ant val: -15%
CCCCCCCCCCCCCCC[C@@H](O)[C@H](CO)NC(=O)CCCCCCC
  EPAC2 ant val: -2%[11.4 µM]

Other compounds follow.
SMILES	EPAC2 ant val
Oc1cc(-c2nc3ccccc3s2)cc2c1OCCN(Cc1cccn1-c1nccs1)C2	-8%
O=C(Cn1cnnn1)N[C@@H]1C(=O)N2C(C(=O)O)=C(CSc3nncs3)CS[C@H]12	-16%&-9%
N[C@@H](Cn1ccc(=O)c(O)c1)C(=O)O	-9%
CCCCN(CC)CCOc1cccc2ccccc12	23%
c1cncc(CNc2ncnc3ccc(-c4cccnc4)cc23)c1	-18%
CC1=CC(=O)C2=C(C)C[C@H](OC(=O)Cc3ccccc3)C3[C@H](OC(=O)[C@H]3C)C12 (stereo partly specified)	?
COc1ccc2c(=O)cc(-c3ccc(O)cc3)oc2c1	-6%
CC(Cc1ccccc1)(NC(=O)CN)c1ccccc1 (stereo unspecified)	-23%
Cc1cc(=O)[nH]c(=S)[nH]1	5%
CC(=O)OC1CC[C@]2(C)C(=CCC3C4CCC(C(C)CCCC(C)C)[C@]4(C)CCC32)C1 (stereo partly specified)	-10%
NC(=O)c1cccc(N)c1	?
Cc1c(C(=O)NC2CCCCC2)sc2ncnc(NCCN(C)C)c12	-13%
Cc1cnc(-n2ncc(C(=O)NCC3CCCN(C)C3)c2C)nc1-c1cccs1 (stereo unspecified)	-5%
COc1ccc(-c2nc3cnc(N4CCN(C)CC4)nc3n(C)c2=O)cc1	-15%
COc1ccccc1C1CN(Cc2cccc(O)c2)Cc2ccccc2O1 (stereo unspecified)	?
COC(=O)N1CCC2(CCCN(c3ccncc3)C2)CC1	1%
c1ccc2c(Cc3c[nH]c4ccccc34)c[nH]c2c1	?
COc1cccc2c1[C@@H]1CN(CCCCn3c(=O)[nH]c4c(sc5ncc(-c6ccccc6)nc54)c3=O)C[C@@H]1CO2	-12%
CCn1ccnc1CC1COc2ccccc2O1 (stereo unspecified)	35µM*!
C#CCCCCCCCCCCCCCCCC(=O)O	-18%[11.4 µM]
Cc1cnc(-n2ncc(C(=O)N3CCN(C(C)C)CC3)c2-c2ccco2)nc1-c1ccc(F)cc1	3%
CC(=O)OCC1=C(C(=O)O)N2C(=O)[C@@H](NC(=O)Cc3ccccc3)[C@H]2SC1	10%
CCCCC(CC)COC(=O)CC(C(=O)OCC(CC)CCCC)S(=O)(=O)O (stereo unspecified)	?
COc1cccc(Cn2c(=O)c(C)nc3cnc(N(C)C)nc32)c1	-20%
Cn1cccc1C(=O)N1CCC[C@@]2(CCN(c3ccccn3)C2)C1	-14%
COc1ccc(Oc2ncc3nc(-c4cc(F)cc(F)c4)c(=O)n(CCC#N)c3n2)cc1	-23%
CON	7%
CC(=O)c1ccc(F)c(-c2cc(C)cc3c2OC(CNC(=O)C(C)n2nc(C)cc2C)C3)c1 (stereo unspecified)	-24%
Cc1ccc(CN2CCc3nnc(C(NS(C)(=O)=O)C(C)C)n3CC2)cc1C (stereo unspecified)	-5%
CN(C(=O)c1cnn(-c2ncc3c(n2)-c2ccccc2CCC3)c1C1CC1)C1CCOC1 (stereo unspecified)	?

7 neighbouring entries out of the list so far, quoted:
SMILES	EPAC2 ant val
COc1cccc(Cn2c(=O)c(C)nc3cnc(N(C)C)nc32)c1	-20%
Cn1cccc1C(=O)N1CCC[C@@]2(CCN(c3ccccn3)C2)C1	-14%
COc1ccc(Oc2ncc3nc(-c4cc(F)cc(F)c4)c(=O)n(CCC#N)c3n2)cc1	-23%
CON	7%
CC(=O)c1ccc(F)c(-c2cc(C)cc3c2OC(CNC(=O)C(C)n2nc(C)cc2C)C3)c1 (stereo unspecified)	-24%
Cc1ccc(CN2CCc3nnc(C(NS(C)(=O)=O)C(C)C)n3CC2)cc1C (stereo unspecified)	-5%
CN(C(=O)c1cnn(-c2ncc3c(n2)-c2ccccc2CCC3)c1C1CC1)C1CCOC1 (stereo unspecified)	?

Pulled one by one from the entries so far:
SMILES	EPAC2 ant val
CC(=O)OCC1=C(C(=O)O)N2C(=O)[C@@H](NC(=O)Cc3ccccc3)[C@H]2SC1	10%
CC(=O)c1ccc(F)c(-c2cc(C)cc3c2OC(CNC(=O)C(C)n2nc(C)cc2C)C3)c1 (stereo unspecified)	-24%

(cont.)
SMILES	EPAC2 ant val
COc1ccccc1-c1coc2cc(O)ccc2c1=O	-18%
COc1cc(=O)n2c(c1C(=O)N(C)Cc1nonc1C)CCN(Cc1cccc(Cl)c1)CC2	-7%
N#CCCn1c(=O)c(-c2ccc(F)cc2)nc2cnc(Oc3ccccc3)nc21	-16%
O=C(O)[C@H](O)[C@@H](O)[C@H](O)[C@H](O)CO	-10%&-16%
CCCCCCCCOc1ccccc1C(=O)Nc1ccc(C(=O)OCC[N+](C)(CC)CC)cc1	?
CC(C)c1nc(CN(C)C(=O)N[C@H](C(=O)N[C@@H](Cc2ccccc2)C[C@H](O)[C@H](Cc2ccccc2)NC(=O)OCc2cncs2)C(C)C)cs1	-54%&-15%
CO[C@@]1(NC(=O)CSCC#N)C(=O)N2C(C(=O)O)=C(CSc3nnnn3C)CS[C@@H]21	-3%&9%
CCOc1cc(OCC)c(C(=O)CCC(=O)O)cc1OCC	25%
COc1ccc2c(c1)[C@]1(C)CCC(=O)C[C@H]1CC2	-40%
CC(C)(Oc1ccc(Cl)cc1)C(=O)O	-1%&-1%&-11%&-30%
C1=CC2C3C=CC(C3)C2C1 (stereo unspecified)	12%[239 µM]
COc1ccccc1N1CCN(CCN(C(=O)c2ccc(F)cc2)c2ccccn2)CC1	-9%
CC(=O)OC1CC[C@@]2(C)C(CC[C@@]3(C)C2CC=C2C4CC(C)(C)CC[C@]4(C)CC[C@@]23C)C1(C)C (stereo partly specified)	16%
CNC(C)[C@@H]1CC[C@@H](N)[C@@H](O[C@H]2[C@H](O)[C@@H](O[C@H]3OC[C@](C)(O)[C@H](NC)[C@H]3O)[C@H](N)C[C@@H]2N)O1 (stereo partly specified)	0%[56.6 µM]
COc1ccc2[nH]cc(CCNc3ccnc(-c4c(C)noc4C)n3)c2c1	-18%
COc1ncc2nc(-c3ccc(Cl)cc3)c(=O)n(C[C@H]3CCCO3)c2n1	-14%
COCCNc1ncnc2ccc(-c3c(C)noc3C)cc12	-6%
COc1ccccc1CC(=O)NCC1Cc2cc(F)cc(-c3cncnc3)c2O1 (stereo unspecified)	-20%
CCc1nc2cc(C(=O)NCC3CCS(=O)(=O)C3)cc(NC(=O)c3ccccc3OC)c2n1C (stereo unspecified)	-5%
CCOC(=O)C1=C(N)Oc2ccc(Br)cc2[C@@H]1[C@@H](C#N)C(=O)OCC	-20%
